# AmpC inh no det: Promiscuous and Specific Inhibitors of AmpC Beta-Lactamase (assay without detergent) | P00811 | AmpC nitrocefin hydrolysis, absorbance 480 nm, no detergent; potencies from a single point are estimates | Potency, µM (doses to about 28.7 µM), without a hit: at the highest dose activity change, negative = inhibition | 1.8% of 71,000 active; active = falling curve, for most hits resting on a single point; inconclusive = weak or doubtful change; inactive = flat or rising curve; note: % of control where 0% means no effect; about half of the hits show no inhibition at the top dose; a quarter of the inactives give rising signals
# Target sequence (P00811 whole entry, looked up): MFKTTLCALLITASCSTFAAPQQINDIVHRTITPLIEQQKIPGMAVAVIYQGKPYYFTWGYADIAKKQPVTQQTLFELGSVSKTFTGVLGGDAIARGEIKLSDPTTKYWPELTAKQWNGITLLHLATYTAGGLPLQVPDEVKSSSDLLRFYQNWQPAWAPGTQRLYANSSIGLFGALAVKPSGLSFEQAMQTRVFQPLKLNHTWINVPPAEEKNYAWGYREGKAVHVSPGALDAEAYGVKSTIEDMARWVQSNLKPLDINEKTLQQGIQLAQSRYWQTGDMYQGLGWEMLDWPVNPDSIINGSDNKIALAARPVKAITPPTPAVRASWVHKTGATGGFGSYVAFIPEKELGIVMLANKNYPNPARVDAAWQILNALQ
#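 AmpC in 20 mM phosphate buffer pH 7.0 was preincubated 15 min at room temperature with compounds. Nitrocefin (800 uM stock) was then added and hydrolysis followed at 480 nm every 20 s for 4 min.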
# Numbers without * were called inactive; ? = inconclusive; & = joins results of further samples; [ ] = dose if it differs, or a comment. Potency is the fitted concentration of half-maximal effect. Not all compounds are listed, so the mix of outcomes need not match the whole.
SMILES,AmpC inh no det
CC1CCCCC1NC(=O)Cn1nnc(-c2ccc(Cl)cc2)n1 (stereo unspecified),?
COCCN1Cc2cccc(C(=O)Nc3cccnc3)c2C1=O,-3.5%
Cc1cc(-c2ccccc2C(=O)O)on1,-6.3%
CCC1Oc2ccc(C)cc2N(Cc2cccc(C)c2)C1=O (stereo unspecified),-12.2%
Cc1nn(-c2ccccc2)c2c1C(c1c(C)[nH]c(C#N)c1C)C(C#N)=C(N)O2 (stereo unspecified),-13.5%
CC(C)C(=O)Nc1ccc(NC(=O)c2cc3ccccc3o2)cc1,-12.9%
CC(=O)Nc1ccc(S(=O)(=O)N2CCSC2c2ccccc2)cc1 (stereo unspecified),3.8%
CCOC(=O)c1ccc(Nc2cc(C)nc3nc(C)nn23)cc1,27.8%
O=C(CC1COc2ccccc2O1)NC1CCCCC1 (stereo unspecified),-2.1%
Cc1ccc(Cl)cc1N1CCN(C(CC(C)C)c2nnnn2CC2CCCO2)CC1 (stereo unspecified),29.6%
Cc1cccc(C)c1OCC(=O)Nc1cccc(NC(=O)c2ccco2)c1,-7.6%
Cc1ccc(S(=O)(=O)Cn2nnnc2CN(Cc2ccco2)Cc2cccs2)cc1,5.2%
COc1ccc2c(c1)C(=O)N(c1ccccc1OC)C(=O)C2(C)C,15.0%
O=C(O)C1C2C=CC(C2)C1C(=O)OCc1ccccc1 (stereo unspecified),2.4%
CN(C)C(=O)CSc1nnc(C23CC4CC(CC(C4)C2)C3)o1,33.1%
COC(=O)CCCCCN1C(=O)NC(CC2CC2)C(C(=O)OCc2ccccc2)=C1C (stereo unspecified),57.7%
COc1ccc(NC(=O)CN2CCN(C3c4ccccc4-c4ccccc43)CC2)c(OC)c1,71.7%
COc1cc(/C=N/n2cnnc2)ccc1OC(=O)c1ccncc1,3.7%
CCOc1ccc(S(=O)(=O)n2nnc3ccccc32)cc1C(C)C,-1.8%
N#C/C(=C1\CCCN1)c1ccc2ccccc2n1,9.8%
Cc1cnc(NC(=O)c2ccco2)s1,-5.8%
CC(C)c1ccc(-c2nc(N3CCCCC3)[nH]c(=O)c2C#N)cc1,-9.8%
CC(OC(=O)c1cc2sccc2n1C)C(=O)NCc1ccc2c(c1)OCO2 (stereo unspecified),-19.9%
CC1(C)CC(=O)c2sc(NC(=O)CN3C(=O)CCC3=O)nc2C1,-7.1%
CC1=C(C(=O)Nc2ccccc2)SCCO1,1.6%
# Additional entries
SMILES,AmpC inh no det
COc1cccc(-c2nccc(NCc3cccnc3)n2)c1,8.1%
COC(=O)c1c(NC(=O)CN2CCN(c3ccccc3)CC2)c2c(C)cccc2n1C,150.0%
O=C(Nc1cccnc1)c1cccs1,-6.7%
COc1ccc(C(c2nnnn2C(C)(C)C)N2CCN(C)CC2)cc1OC (stereo unspecified),-2.9%
O=C(NC1CCCCCC1)c1nnc(Cc2ccc(Cl)cc2)o1,11.8%
CCc1c(C)nc(SCCOc2ccc(OC(C)C)cc2)[nH]c1=O,-0.2%
CN1CC[C@@]23CCCC[C@@H]2[C@@H]1Cc1ccc(O)cc13,-9.2%
COc1ccc(-c2noc(CCC(=O)Nc3ccc(C)c(C)c3)n2)cc1,-1.0%
Cc1ccc2oc(=O)c3cnn(CC(=O)NCCCOC(C)C)c3c2c1,-4.6%
O=C1C=C(c2ccccc2)C(O)(c2ccccc2)C1 (stereo unspecified),5.9%
O=C(NCc1cccnc1)C1c2ccccc2C(=O)N1Cc1ccco1 (stereo unspecified),21.2%
COc1ccc(C(=O)Nc2ccc(S(=O)(=O)Nc3nccnc3OC)cc2)cc1OC,-6.8%
Cc1ccc(-n2ncc(C(=O)NCc3ccc4c(c3)OCO4)c2NC(=O)c2ccco2)cc1C,-2.6%
Cc1c(C(=O)O)[nH]c2c1C(=O)CC(c1ccccc1)C2 (stereo unspecified),22.2%
C=CCOn1c(=O)c(=O)n(OCc2ccccc2)c2ccccc21,-10.1%
Cc1nc2cnc(Nc3ccccc3)nc2n(Cc2cccs2)c1=O,6.5%
C=C1C/C(=C\C)C(=O)O[C@@H]2CCN3CC=C(COC(=O)[C@]1(C)O)[C@H]23,-5.0%
COCCN1C=C(C(=O)OC)C(c2ccc(OC)c(OC)c2)C(C(=O)OC)=C1,49.6%
O=C(C1CCN(S(=O)(=O)c2cnc[nH]2)CC1)N1CCN(c2ncccn2)CC1,-5.5%
O=c1c(/C=N/O)coc2ccc3ccccc3c12,-12.7%
CCn1c(N2CCN(CC(=O)Nc3cccc(C)c3C)CC2)nc2ccccc21,94.0%
CC1CCN(CC(=O)N2c3ccccc3CCc3ccccc32)CC1,22.0%
Cn1c(=O)oc2cc(S(=O)(=O)NCc3ccccn3)ccc21,8.2%
COCCCn1c(SCc2cc(=O)[nH]c3ccccc23)nnc1-c1ccco1,-13.2%
O=c1[nH]c(=O)n(Cc2ccccc2)c(O)c1C=Nc1ccc(CN2CCOCC2)cc1,118.9%

# 15 entries already listed, arranged by formula weight, largest number first:
SMILES,AmpC inh no det
Cc1ccc(-n2ncc(C(=O)NCc3ccc4c(c3)OCO4)c2NC(=O)c2ccco2)cc1C,-2.6%
COc1ccc(C(=O)Nc2ccc(S(=O)(=O)Nc3nccnc3OC)cc2)cc1OC,-6.8%
O=c1[nH]c(=O)n(Cc2ccccc2)c(O)c1C=Nc1ccc(CN2CCOCC2)cc1,118.9%
O=C(C1CCN(S(=O)(=O)c2cnc[nH]2)CC1)N1CCN(c2ncccn2)CC1,-5.5%
COCCN1C=C(C(=O)OC)C(c2ccc(OC)c(OC)c2)C(C(=O)OC)=C1,49.6%
COc1ccc(-c2noc(CCC(=O)Nc3ccc(C)c(C)c3)n2)cc1,-1.0%
CC1CCN(CC(=O)N2c3ccccc3CCc3ccccc32)CC1,22.0%
C=C1C/C(=C\C)C(=O)O[C@@H]2CCN3CC=C(COC(=O)[C@]1(C)O)[C@H]23,-5.0%
C=CCOn1c(=O)c(=O)n(OCc2ccccc2)c2ccccc21,-10.1%
Cn1c(=O)oc2cc(S(=O)(=O)NCc3ccccn3)ccc21,8.2%
COc1cccc(-c2nccc(NCc3cccnc3)n2)c1,8.1%
CN1CC[C@@]23CCCC[C@@H]2[C@@H]1Cc1ccc(O)cc13,-9.2%
O=C1C=C(c2ccccc2)C(O)(c2ccccc2)C1 (stereo unspecified),5.9%
O=c1c(/C=N/O)coc2ccc3ccccc3c12,-12.7%
O=C(Nc1cccnc1)c1cccs1,-6.7%

# The results go on.
SMILES,AmpC inh no det
O=C(Oc1ccnc2cc(Cl)ccc12)N1CCCCCC1,90.7%
O=c1cnc2cnc(OCc3ccccc3)nc2n1CCc1ccccc1,42.6%
COC(=O)c1ccc(N2C(=O)CC(N3CCC(n4c(=O)[nH]c5ccccc54)CC3)C2=O)cc1 (stereo unspecified),87.0%
CC1CCCCC1NC(=O)c1ccc(S(=O)(=O)NCc2ccco2)cc1 (stereo unspecified),-3.5%
Cc1cccc(OCC(=O)N(Cc2cccs2)C2CCS(=O)(=O)C2)c1 (stereo unspecified),35.7%
COc1ccc(C(=O)CSc2nnc(-c3ccoc3C)n2CC2CCCO2)cc1 (stereo unspecified),59.9%
Cc1ccc2nc(NCCO)nc(-c3ccccc3)c2c1,73.9%
C[C@@H](C(=O)Nc1ccc2ccccc2c1)[C@@H]1C[C@@]1(C)[C@@H](NS(=O)(=O)c1ccc(-c2ccccc2)cc1)c1ccccc1,?
O=C(OCN1C(=O)c2ccccc2C1=O)c1ccc2c(=O)n3c(nc2c1)CCC3,96.8%
Cc1nc2ccccc2c(=O)n1-c1cccc(O)c1,-0.6%
COCCCN1C(=O)C(O)=C(C(=O)c2ccco2)C1c1cccc(Br)c1 (stereo unspecified),-8.3%
CCc1nn(CC(=O)NCCCN2CCCC2=O)c(=O)c2cc3sccc3n12,16.3%
CC(=O)c1cccc(NC(=O)N2CCCC2C(=O)Nc2cccc(C)c2C)c1 (stereo unspecified),3.5%
COC(=O)Nc1ncc(CN2C(=O)c3ccccc3C2=O)s1,18.6%
O=C(O)c1cc(NS(=O)(=O)c2cccc3ccccc23)ccc1O,-14.3%
COC1=C(OC)c2ccccc2C(C(=O)O)N/C1=C(/C)Nc1ccncc1 (stereo unspecified),11.4%
COCCn1c(=O)c(-c2cc(F)cc(F)c2)nc2cncnc21,31.5%
CC(=O)c1c(C)[nH]c(C(=O)CSc2nnc(C3CCCCC3)n2N)c1C,10.4%
CCOc1ccc(C(C)=O)cc1N1C(=O)C2C3C=CC(O3)C2C1=O (stereo unspecified),5.5%
O=C(NS(=O)(=O)c1ccc(NC(=O)C2CCCO2)cc1)c1ccccc1 (stereo unspecified),0.2%
CN(C)c1ccccc1,-1.2%
Cc1cccn2c(=O)c3cc(C#N)c(=NC(=O)c4ccncc4)n(CCCOC(C)C)c3nc12,72.9%
CC(=O)Nc1cc(C(=O)N2CCCC2)ccc1S(=O)(=O)c1ccc(C)cc1,3.0%
C=C(C)Cn1c(N2CCCC2)nc2c1c(=O)[nH]c(=O)n2C,-2.6%
O=C(O)c1ccc(NC(=O)C2CC=CCC2C(=O)O)cc1 (stereo unspecified),4.0%
# Next section
SMILES,AmpC inh no det
CC(=O)O[C@H]1C[C@H]2CC[C@@H]3[C@@H](CC[C@]4(C)[C@H](OC(C)=O)[C@H]([N+]5(C)CCCCC5)C[C@@H]34)[C@]2(C)C[C@H]1[N+]1(C)CCCCC1,3.8%[12.8 µM]
CC(=O)N1CCc2cc(C(=O)CN3CCCCC3)ccc21,96.6%
CCOC(=O)C(Cc1ccccc1)C(=O)Nc1nccs1 (stereo unspecified),-6.0%
CCCN(c1ccc(C(C)C)cc1)S(=O)(=O)c1c(C)[nH]c(=O)[nH]c1=O,4.1%
O=C(Nn1cc(C(=O)N2CCN(c3ccccc3F)CC2)c2ccccc2c1=O)c1cnccn1,83.9%
CNC(=O)C1CC(=O)N(c2ccc(F)c(Cl)c2)C1 (stereo unspecified),-12.3%
COC(=O)[C@@]1(Cc2ccc(F)cc2)[C@H]2c3cc(C(=O)N4CCCC4)n(CCF)c3C[C@H]2CN1C(=O)c1ccccc1,175.4%
CC1CCCCN1CC(=O)c1ccc2cc[nH]c2c1 (stereo unspecified),19.5%
O=C(Nc1cc(C(F)(F)F)ccc1N1CCCC1)c1cccnc1,21.2%
Cc1noc(C)c1-c1nc(N(C)C)c2ccccc2n1,5.7%
CC(C)CCNC(=O)C(c1ccco1)N(C(=O)Cn1nnc2ccccc21)c1ccc2c(c1)OCO2 (stereo unspecified),34.2%
Cc1nc(C)n(CC(O)COc2ccc3ccccc3c2)n1 (stereo unspecified),30.6%
CCOc1ccc(-c2nnn(CC(=O)Nc3cccc(OC)c3)n2)cc1OCC,45.6%
O=C(COC(=O)C1(c2ccccc2F)CCCC1)NC1CCS(=O)(=O)C1 (stereo unspecified),26.2%
CC(NC(=O)Nc1ccccn1)N1C(=O)C2C3C=CC(C3)C2C1=O (stereo unspecified),-3.5%
CCCCCSc1nnc2c(n1)OC(C)N(C(C)=O)c1ccccc1-2 (stereo unspecified),11.8%
CCCOC(=O)c1ccc(Oc2cn[nH]c2-c2ccc(OC)cc2O)cc1,-24.9%
CCC(=O)N1CCc2cc(S(=O)(=O)N3CCN(C(=O)c4ccco4)CC3)ccc21,71.0%
CC(Oc1ccc(Cl)cc1Cl)C(=O)NCCCN1CCOCC1 (stereo unspecified),21.6%
Cc1cc2c(c(=O)o1)C(C13C=CC(CC1)C3)C(C#N)=C(N)O2 (stereo unspecified),-6.7%
CCCc1cc2c(c(NC(C)=O)n1)c(=O)oc1ccccc12,-4.4%
O=C1c2ccccc2C(=O)N1Cc1nn2c(-c3ccc(Cl)cc3)nnc2s1,36.3%
CC1(C)CC2(CCO1)N1CC3(C)CN2CC(C)(C1)C3O (stereo unspecified),-7.2%
CS(=O)(=O)NC1c2cccc3cccc(c23)C1N1CCOCC1 (stereo unspecified),9.0%
CC(NC(=O)Cn1cnnn1)C12CC3CC(CC(C3)C1)C2 (stereo unspecified),-2.5%
# Further records follow:
SMILES,AmpC inh no det
Cc1ccccc1-c1nc2cc(N)ccc2o1,11.2%
CCN(CC)CCCN1C(=O)C(O)=C(C(=O)c2cc3ccccc3o2)C1c1ccccn1 (stereo unspecified),-6.6%
O=C(NCSc1ccncn1)c1ccccc1,-8.0%
Cc1cccc(NC(=O)NCCN2C(=O)C3C4C=CC(C4)C3C2=O)c1 (stereo unspecified),3.98µM*[single pt active]
COc1ccc(CCNC(=O)c2cc(-c3cccs3)on2)cc1OC,1.2%
Cc1cccc(OCCOCCSc2ncccn2)c1,16.2%
N#CCCN1CCN(C(CNS(=O)(=O)c2ccc(Cl)cc2)c2ccccc2)CC1 (stereo unspecified),69.9%
CC(C)=CC(=O)Nc1ccc2c(c1)OCO2,-8.4%
O=C(COc1ccc(F)cc1Br)NCc1ccccn1,26.4%
CCCCCCCC/C=C\CCCCCCCC(=O)NCCO,24.0%&32.6%
O=C(c1ccco1)N1CCN(C(=O)C2Cc3ccccc3CN2S(=O)(=O)c2ccc(F)cc2)CC1 (stereo unspecified),101.5%
O=C(CN1C(=O)c2cccc3cccc1c23)N1CCc2ccccc2C1,24.3%
O=C(COC(=O)c1cccnc1Nc1ccccc1F)NCc1ccc2c(c1)OCO2,-18.4%
Cc1cc(C)nc(-n2nc(C)cc2NC(=O)COC(=O)CCC(=O)c2cccs2)n1,104.3%
O=c1c2c3nc4ccccc4nc3n(/N=C/c3cccs3)c2ncn1-c1ccccc1,29.8%
O=[N+]([O-])c1cccc2c(Br)[nH]nc12,-8.1%&-13.3%
CC12CC1(C)C(=O)N(c1cc(Cl)cc(Cl)c1)C2=O (stereo unspecified),4.2%
C=CCNC(=O)CN1CCC(O)(c2ccccc2)CC1,-0.8%
CCC(=O)N1CCc2cc(S(=O)(=O)NC(C(=O)N3CCc4ccccc4C3)C(C)C)ccc21 (stereo unspecified),83.2%
COc1ccc(Cn2nnnc2C(c2cccs2)N2CCN(c3ccccc3)CC2)cc1 (stereo unspecified),3.7%
CS(=O)(=O)Nc1ccc(C(=O)NCCC2=CCCCC2)cc1,12.8%

# Source: PubChem (National Center for Advancing Translational Sciences (NCATS))
